High-throughput results as filed in PubChem BioAssay.
fixLJ activator: B. multivorans fixK reporter activation. B. multivorans fixK-promoter GFP reporter, 18 h; stronger effect = higher value. z-score (no concentration beside the values). actives 0.3% (n = 29,000);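 active means replicate mean overnight rise in green fluorescent reporter signal, 3 or more SD over negative controls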;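 further: score is relative to vehicle wells of the plate; 300 nL library stock went into each well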
* hit, by the source's call; & = joins results of further samples. Only part of the results is shown. The share of hits here may be higher or lower than overall.

Compound | fixLJ activator
COc1ccc(C(=O)Nc2ccc(-c3nc4ccccc4s3)cc2C)cc1Cl | -1.6
COc1ccc(CNC(=O)C(Cc2ccccc2)NS(=O)(=O)c2ccc3c(c2)CCN3C(C)=O)cc1 (configuration not stated) | -1
Cc1cc2c(cc1C)NC(CC(=O)Nc1ccccc1SC(F)(F)F)C(=O)N2 (configuration not stated) | -0.51
COc1cc(/C=C(\C#N)c2nc3ccccc3[nH]2)cc(Cl)c1OCc1ccccc1Cl | -0.54
CCc1cccc(NC(=O)c2cc3c(s2)-c2ccccc2OC3)c1 | 0.69
Cn1ccnc1CN1CCN(Cc2cccc3nonc23)CC1 | 0.49
CN(C)S(=O)(=O)CC1CN(C(=O)c2cccc(OC(F)F)c2)CC1O (configuration not stated) | -0.27
CCc1ccc(Nc2sc(C(=O)c3ccc(F)cc3)c(N)c2S(=O)(=O)c2ccccc2)cc1 | -2.5
CNC(=O)c1ccc(S(=O)(=O)NCc2c(C)noc2C)cc1 | 0.01
NC(=O)CN1CCC(c2nc(-c3ccc4nc[nH]c4c3)no2)CC1 | -2.1
COC1CN(C(=O)c2cccc3cc[nH]c23)CC1Cc1cc(C)no1 (configuration not stated) | -0.38
COc1ccc(C(=O)N2CCC(C(=O)Nc3ccc(Cl)cc3)CC2)cc1 | -1.4
COc1ccc(S(=O)(=O)N2Cc3ccccc3CC2C(=O)Nc2cc(Cl)ccc2Cl)cc1 (configuration not stated) | -0.71
Cc1ccc(N2C(=O)[C@@H]3CSC(c4ccc(Cl)cc4)N3C2=O)cc1 (some centres not stated) | -0.76
Fc1ccc(Nc2c(-c3c[nH]c4ccccc34)nc3ccccn23)cc1 | -0.3
COc1ccc(Nc2cc(C(=O)NCCCN3CCN(c4ccccc4F)CC3)c3ccccc3n2)c(OC)c1 | -1
Cc1c(Cl)cccc1-c1ccc(C(=O)Nc2ccc3oc(-c4cccnc4)nc3c2)o1 | -0.49
CO[C@]12C[C@@H](COC(=O)c3cncc(Br)c3)CN(C)[C@@H]1Cc1cn(C)c3cccc2c13 | -0.72&-0.14
C=C(C)Cn1c(SCC(=O)c2ccc(Br)cc2)nc2sc3c(c2c1=O)CCCC3 | 0.11
CCOc1cc(C(=O)NCc2nc(-c3cccc(C)c3)no2)cc(OCC)c1OCC | -1.8
Cc1cccc(OCC(=O)Nc2ccc3c(c2)nc(CCNC(=O)c2ccco2)n3C)c1 | -0.89
COc1ccc(-n2nc3cc(C)c(NC(=O)c4ccc(-c5ccc(Cl)cc5)o4)cc3n2)cc1 | -0.59
COc1ccc(CNC(=O)c2cc3c(=O)[nH]c4ccccc4c3s2)cc1 | -0.36
CCOC(=O)c1cnc2c(ccc3ccccc32)c1Nc1cccc(OC)c1 | 1.2

An excerpt from above in order of SMILES length, descending:
Compound | fixLJ activator
CO[C@]12C[C@@H](COC(=O)c3cncc(Br)c3)CN(C)[C@@H]1Cc1cn(C)c3cccc2c13 | -0.72&-0.14
COc1ccc(S(=O)(=O)N2Cc3ccccc3CC2C(=O)Nc2cc(Cl)ccc2Cl)cc1 (configuration not stated) | -0.71
C=C(C)Cn1c(SCC(=O)c2ccc(Br)cc2)nc2sc3c(c2c1=O)CCCC3 | 0.11
CCOc1cc(C(=O)NCc2nc(-c3cccc(C)c3)no2)cc(OCC)c1OCC | -1.8
Cc1ccc(N2C(=O)[C@@H]3CSC(c4ccc(Cl)cc4)N3C2=O)cc1 (some centres not stated) | -0.76
COc1ccc(CNC(=O)c2cc3c(=O)[nH]c4ccccc4c3s2)cc1 | -0.36
CCOC(=O)c1cnc2c(ccc3ccccc32)c1Nc1cccc(OC)c1 | 1.2

Further entries:
Compound | fixLJ activator
COc1c(C)cnc(CN(C)C(=O)Nc2ccc(-c3n[nH]c(C)n3)cc2)c1C | -1.2
COc1cccc2c1C1(CCN(c3cc(C#N)ccn3)CC1)OCC2 | 0.55
COc1ccc(C(=O)Nc2ccc(-c3nc4ncccc4o3)cc2C)cc1Br | -2.2
COc1cc(OC)cc(-c2nc3nc(C)c(CCC(=O)Nc4ccc(C)cc4)c(C)n3n2)c1 | -0.29
O=C1c2cccc(O)c2C(=O)c2c(O)cccc21 | -1.3
COc1cccc(C(=O)Nc2ccc3oc(-c4ccc5ccccc5c4)nc3c2)c1 | -1.3
COc1cccc(C2c3c(-c4ccccc4O)n[nH]c3C(=O)N2Cc2cccnc2)c1 (configuration not stated) | -0.26
COCCc1noc(CN(C)c2cc(C3CC(N)C3)ncn2)n1 (configuration not stated) | -0.07
C=CCOc1ccccc1CN(CC)C(=O)C1CC(C)=NO1 (configuration not stated) | -1.7
NCCC1CN(C(=O)NCCc2ccccc2Cl)CCO1 (configuration not stated) | -0.35
COC(=O)c1ccc(Oc2nc3c(c(=O)n(C)c(=O)n3C)n2Cc2ccc(Cl)c(Cl)c2)cc1 | 0.19
O=C(C1CCN(S(=O)(=O)c2cccs2)CC1)N1CCN(c2ccccc2F)CC1 | 0.98
CCCCC12CN3CC(C)(CN(C1)C3c1ccccn1)C2=O (configuration not stated) | -1.1
CNc1nccnc1-c1cccc(OCc2cc(OC)cc(OC)c2)c1 | 1.2
Clc1ccc(CCNC(c2ccc(Cl)cc2)c2nnc(-c3ccccc3)o2)cc1 (configuration not stated) | -1.7
OCCN1C[C@@H](O)[C@@H](O)C(O)C1CO (some centres not stated) | -2
Cc1ccc(C)n1-c1nnc(N2CCC(C(=O)NCc3ccc(F)cc3)CC2)s1 | 0.32
CCN1CCN(c2cc(C)c3cc(NC(=O)c4cc(OC)cc(OC)c4)ccc3n2)CC1 | -2.2
COc1cccc(NC(=O)N2CCC3(CC2)OCC[C@@](C)(O)C3O)c1 (some centres not stated) | -2.3
CC(C)c1nccn1CCCNC(=O)c1ccc(N2CCOC(C)(C)C2)nc1 | -1.2
CC(C)CCn1c(=O)c2cccnc2n(CC(=O)Nc2ccccc2F)c1=O | -0.68
Cc1cccc(N(C)C(=O)C2CCC(CNS(=O)(=O)c3cccc4nsnc34)CC2)c1 (configuration not stated) | -0.59
Cn1c(=O)n(-c2cccc(Cl)c2)c(=O)c2sc3ccccc3c21 | -0.53
Cc1c2cnn(CC(=O)NCc3ccc(F)cc3)c(=O)c2c(C)n1Cc1ccccc1F | -1.7
COc1cc(OC)cc(C(=O)Nc2ccc3nc(N4CCCCC4)cc(C)c3c2)c1 | -0.39
Cc1ccc(NC(=O)CN2C(=O)C(c3ccccc3)=NC23CCCCC3)cc1C | -2
COc1ccc(F)c(F)c1-c1c(-c2ccccc2)ncn1Cc1ncn[nH]1 | 0.97
Cc1ccc(CCNC(=O)CS(=O)Cc2nc(-c3ccccc3C)oc2C)cc1 (configuration not stated) | -1.9
COc1ccc(NC(=O)CCCOc2cc(=O)n(C)c3ccccc23)c(OC)c1 | 0.14
O=C(NCc1cccc(Cl)c1)c1cc2c(s1)-c1ccccc1SC2 | -0.77
COc1cccc(Cn2nc(C)nc2CN2CC(c3ccccc3)CC2=O)c1 (configuration not stated) | 0.8
CCc1nn(CC(=O)Nc2c(C)cc(C)cc2C)c(=O)c2cc3sccc3n12 | -0.96
CC(C)c1ccc(Cc2cnc(NC(=O)c3ccc4c(c3)CC(c3ccccc3)OC4=O)s2)cc1 (configuration not stated) | -4.4
Cc1nc(N(C)C)ncc1C(=O)N1CC(O)C(Cc2ccnc3ccccc23)C1 (configuration not stated) | -0.99
O=P(O)(O)C(O)(Cc1cccnc1)P(=O)(O)O | -2.4&-1.6
CCOC(=O)c1cnc2ccc(OC(F)(F)F)cc2c1Nc1ccccc1C(=O)O | -3.2
Cc1ccc(CCNC(=O)c2ccc3c(c2)N(Cc2ccc(F)cc2)CCS3)cc1 | 0.09
Cc1cc(C)cc(OCc2cc(=O)n3c4c(sc3n2)CCCC4)c1 | -1
CCCc1nc2c(C)cc(-c3nc4ccccc4n3C)cc2n1Cc1ccc(-c2ccccc2C(=O)O)cc1 | 0.87&-1.8
COc1ccc(C(=O)N2CCCC(c3nccn3Cc3ccccn3)C2)cc1 (configuration not stated) | -0.5
Cc1sc2ncn(CC(=O)N3CCN(c4ccc(Cl)cc4)CC3)c(=O)c2c1S(=O)(=O)N1CCN(c2ncccn2)CC1 | 0.69
COc1ccc(-n2nc(C(=O)N3CCCCC3C)c3c4ccccc4n(C)c3c2=O)cc1Cl (configuration not stated) | -1.9
Cc1nc2c([nH]1)CN(C(=O)C1(c3ccccc3)CCN(C)CC1)CC2 | -3.1
CCOc1ccc2c(c1)c(=O)c(C(=O)c1ccccc1)cn2Cc1ccccc1F | 0.1
O=C1SC(Nc2ccc(Cl)cc2)C(=O)N1Cc1ccccc1 (configuration not stated) | 0.47
CCOc1ccccc1N(CC(=O)N1CCc2ccccc2C1)S(=O)(=O)c1ccccc1 | -0.64
COc1ccc(S(=O)(=O)N2CCC(Oc3cccc(C(F)(F)F)c3)CC2)cc1OC | -0.4
Cc1nn(C)c(Cl)c1S(=O)(=O)N1CCC2(CCNCC2)C1 | 1
CC1CCCCN1Cc1c(O)ccc2c(=O)c(-c3cccc(Cl)c3)c(C(F)(F)F)oc12 (configuration not stated) | -3.7
Cc1cccc(C)c1OCc1cc(=O)n2c3c(sc2n1)CCCC3 | -0.26
Cc1ccc2oc(C(=O)Nc3ccc(S(=O)(=O)N4CCCCC4C)cc3)cc(=O)c2c1 (configuration not stated) | -0.99
CC1CCN(c2nc3c(S(=O)(=O)c4ccccc4)nnn3c3ccc(Cl)cc23)CC1 | -0.82
Cc1ccc(CCC(=O)N2CCC3(CCC(=O)N(CC(=O)O)C3)CC2)cc1 | -1.1
COC(=O)c1ccc(-c2nc(-c3ccc(OC)c(OC)c3)no2)cc1 | -0.9
CCOC(=O)c1cc2c(=O)n3ccccc3nc2n(CC2CCCO2)c1=NC(=O)c1cc(C)cc(C)c1 (configuration not stated) | -0.41
CCC(=O)N1CCc2cc(S(=O)(=O)NCCC(=O)NCc3ccccc3Cl)ccc21 | -0.64
O=C(Nc1cc(Cl)ccc1Cl)c1cc2nc(-c3ccc4c(c3)OCO4)cc(C(F)(F)F)n2n1 | -0.64
Cc1cccc(-n2c3c(cc(-c4nc(-c5ccc(Cl)cc5)cs4)c2=O)C(=O)CC(C)(C)C3)c1 | 0.78
Cc1c(NC(=O)C(c2cccnc2)N2CCOCC2)cc2[nH]cnc2c1C (configuration not stated) | -2.8
COc1ccc(C2NC(=O)N(C)C3=C2C(=O)N(c2ccc(C(=O)O)cc2)C3)cc1 (configuration not stated) | -2.4

(more compounds)
Compound | fixLJ activator
CNc1nc(N2CCC(N3CCN(C)CC3)C(CCC(=O)O)C2)ncc1F (configuration not stated) | -1.9
Cc1c(O)cc(C(=O)N2CCCC(c3[nH]ncc3-c3ccccc3)C2)cc1O (configuration not stated) | -1.1
COc1ccccc1Nc1nc(-c2ccccc2)c(CC(=O)O)s1 | -1.7
Cc1cc(Br)ccc1NC(=O)C1(S(=O)(=O)c2ccc(Cl)cc2)CC1 | 0
Nc1n[nH]c(C(=O)N2CCCC(Cc3nc4ccccc4[nH]3)C2)c1Cl (configuration not stated) | 0.19
COc1ccc(CCNC(=O)c2ccc(Cn3c(=O)c4ccccc4n(Cc4cccc(F)c4)c3=O)cc2)cc1OC | -1.8
O=C(Nc1ccc2oc(-c3ccc(Br)cc3)nc2c1)c1cc2ccccc2o1 | -1.3
Cc1ccc(-c2noc(CNC(=O)c3ccc(C)c(Cl)c3)n2)cc1 | -1.8
C[C@H]1O[C@@H](n2cc(F)c(=O)[nH]c2=O)[C@H](O)[C@@H]1O | -1.9
O=C(O)CCC(=O)Nc1sc2c(c1C(=O)Nc1ccccc1)CCCCC2 | 0.49
CCOc1ccc(C2C(C(=O)Nc3ccccc3)=C(C)Nc3nc(-c4ccccc4Cl)nn32)cc1OC (configuration not stated) | -3
CCCS(=O)c1ccc2nc(NC(=O)OC)[nH]c2c1 (configuration not stated) | -1.8
Cc1nc2sccn2c1C(=O)N1CCN(C(=O)C2CCC2)CC1 | -1.2
CCOC(=O)N1CCc2c(sc3c2c(=O)n(-c2ccc(CC)cc2)c(=O)n3CC(=O)Nc2ccc(C)cc2)C1 | 0.24
CCOC(=O)CNc1nc(Oc2ccc(=O)n(C)n2)nc(N(CC)CC)n1 | -2.1
CCOc1ccc(C(=O)c2cnc3ccc(Cl)cc3c2S(=O)(=O)c2ccc(C)cc2)cc1 | -0.94
COc1ccc(-c2nc3ccccc3o2)cc1NC(=O)c1ccc(-c2ccc(C)c(Cl)c2)o1 | -1.2
O=C(c1cnc(-c2ccncc2)nc1)N1CCCC1c1ccccc1 (configuration not stated) | -0.32
Cc1ccc(Nc2nc3ccccc3c3nncn23)c(Cl)c1 | 0.05
Cc1ccc(-c2nn(CC(=O)Nc3cccc(C(F)(F)F)c3)c(=O)c3ccccc23)cc1 | -1.1
COc1ccc(N2CCN(C(=O)CNS(=O)(=O)c3ccc(Br)s3)CC2)cc1 | -0.94
CCC(=O)N1CCc2cc(Br)cc(S(=O)(=O)N3CCCC(C(=O)Nc4ccc(OC)c(Cl)c4)C3)c21 (configuration not stated) | -0.96
Cc1ccc(Oc2c(C(F)(F)F)oc3c(CN4CCC(C)CC4)c(O)ccc3c2=O)cc1 | -1.3
Cc1ccc(CSc2oc(-c3cccs3)nc2S(=O)(=O)c2ccc(C)cc2)cc1 | 2.5
CCCCN(Cc1ccccc1)S(=O)(=O)c1ccc2c(c1)CCN2C(=O)C1CCC1 | -0.11
Cc1cc(C)c(CNC(=O)c2ccc(-c3cncc(C(C)(C)O)c3)cc2)cn1 | 0.36
CCc1cc(=O)oc2cc(C)c3c(-c4ccc(F)cc4)coc3c12 | -1.5
CC(N)C(=O)N1CCC2(CC1)OCCc1c2[nH]c2ccccc12 (configuration not stated) | -0.45
O=C(Nc1cc2c(cc1C(=O)c1ccccc1Cl)OCCO2)c1ccc(Br)cc1 | -1.2
